Source: PubChem
HPGD block = blocks human HPGD enzyme activity; 4.3% of 150,000 active; P15428; Potency, µM, for inactives: at the highest dose activity change, negative = inhibition, hits mostly inhibitors; purified HPGD, NADH fluorescence kinetic, PGE2 substrate; AID 894; active = well fitted inhibition curve with a large enough effect (not every such curve was filed as active); inconclusive = small, poorly fitted or top-dose-only effect, or another doubt; inactive = no such curve, though single readings can be large or run the other way;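 note: top concentration of the series not given in the record; plate controls included wells without enzyme; inactives centre near -10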
Target sequence (P15428 whole entry, looked up): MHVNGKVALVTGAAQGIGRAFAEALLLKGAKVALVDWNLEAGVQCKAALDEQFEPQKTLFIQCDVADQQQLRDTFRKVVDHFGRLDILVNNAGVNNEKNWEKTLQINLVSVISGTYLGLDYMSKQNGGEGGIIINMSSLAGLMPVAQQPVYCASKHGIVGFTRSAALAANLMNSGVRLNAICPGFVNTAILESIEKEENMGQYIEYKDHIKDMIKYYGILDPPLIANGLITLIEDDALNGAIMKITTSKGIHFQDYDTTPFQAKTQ
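NADH formation kinetics: reaction with 30 uM PGE2 and 1 mM NAD+ (final), 20 nM enzyme, Tris-HCl pH 8 with Tween 20, after 15 min compound preincubation at room temperature. Fluorescence change, last versus first of five reads.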
* = called active by the depositor; ? = inconclusive; & = joins results of further samples. % is set by controls: 0 for no effect and ±100 for the full control effect; potency is the fitted concentration of half-maximal effect. This is a subset, so the mix of outcomes need not match the whole.

Preview:
SMILES	HPGD block
Cc1ccccc1C(=O)NC1CCN(Cc2nnnn2Cc2ccccc2)CC1	-16.1%
O=C(NCC(c1cccnc1)N1CCN(c2ccc(F)cc2)CC1)C1CCCCC1 (configuration not stated)	-2.0%
Cc1ccc(-n2c(Cc3cccs3)nnc2SCC(N)=O)cc1	8.0%
O=C(/C=C/c1ccc(F)cc1)NCCCN1CCN(CCCNC(=O)/C=C/c2ccc(F)cc2)CC1	-6.0%
CCCNC1=C(C)C(=O)CC1	-7.9%
CCOC(=O)c1ccc(N2C(=O)CC(N3CCN(C(=O)c4ccco4)CC3)C2=O)cc1 (configuration not stated)	0.7%

This part in full (from the top)
SMILES	HPGD block
Cc1ccccc1C(=O)NC1CCN(Cc2nnnn2Cc2ccccc2)CC1	-16.1%
O=C(NCC(c1cccnc1)N1CCN(c2ccc(F)cc2)CC1)C1CCCCC1 (configuration not stated)	-2.0%
Cc1ccc(-n2c(Cc3cccs3)nnc2SCC(N)=O)cc1	8.0%
O=C(/C=C/c1ccc(F)cc1)NCCCN1CCN(CCCNC(=O)/C=C/c2ccc(F)cc2)CC1	-6.0%
CCCNC1=C(C)C(=O)CC1	-7.9%
CCOC(=O)c1ccc(N2C(=O)CC(N3CCN(C(=O)c4ccco4)CC3)C2=O)cc1 (configuration not stated)	0.7%
Cc1ccc(-c2nnc(SCC(=O)N3CCCC3)o2)cc1	-15.1%
C[N+]1(CC#CC(O)(c2ccccc2)c2ccccc2)CCCC1	-1.3%
COc1ccccc1CNC(=O)CCC(=O)Nc1nnc(C)s1	-13.8%
CC/C(=N\NC(=O)c1ccc(-c2ccccc2)cc1)C12CC3CC(CC(C3)C1)C2	-24.6%
CCN(CC)C1=CC(=[N+]2CCCC2)CC(C)(C)C1	-17.8%
O=S(=O)(Nc1ccccc1F)c1ccc2nsnc2c1	-5.6%
Cc1ccc(-n2c(C)cc(C(=S)N3CCOCC3)c2C)cc1C	5.01µM*
CCOc1ccc(N(CC(=O)Nc2ccccc2C(=O)NCc2ccco2)S(C)(=O)=O)cc1	-23.6%
O=C(CN1C(=O)S/C(=C\c2ccccc2)C1=O)NNC(=O)c1ccccc1O	-10.0%
CCN(CC)CCNc1nc2c(c(=O)n(C)c(=O)n2C)n1C/C=C(/C)Cl	-3.0%
Cc1ccc(-[n+]2cc(=O)o[nH]2)cc1	-5.5%
Cc1nc(SCC(=O)NCC(F)(F)F)c2c(-c3cccs3)csc2n1	-5.7%
O=C(NCc1cn(-c2ccccc2)nc1-c1ccccc1)c1ccc([N+](=O)[O-])cc1	-5.4%
CCCC(=O)NC(Nc1ccc(S(=O)(=O)Nc2cc(C)on2)cc1)(C(=O)OCC)C(F)(F)F (configuration not stated)	1.6%
Cc1ccc(Nc2ccc(NCc3ccccc3)nn2)cc1C	-23.5%
CC1CCc2c(C(=O)N3CCN(S(=O)(=O)c4cccs4)CC3)csc2C1 (configuration not stated)	-7.7%
COc1cc(C=O)ccc1OCCOc1ccccc1[N+](=O)[O-]	?
Cc1cc(C(=O)NCC2CCCO2)n(-c2ccccc2)n1 (configuration not stated)	-20.8%
O=c1c2ccccc2nc2n1C(CSCc1ccc(Cl)cc1)CS2 (configuration not stated)	-12.0%
Cc1ccc(S(=O)(=O)N2CCC(=O)N(CCOC(=O)Nc3ccccc3C)CC2)cc1	-10.0%
CCOC(=O)Cn1c(=O)n(CC(=O)OCC)c2ccccc21	-10.2%
CC(OC(=O)CN(C)S(=O)(=O)c1ccc(Cl)cc1)C(=O)Nc1ccc(N2CCOCC2)cc1 (configuration not stated)	-6.1%
S=c1[nH]nc(-c2cc(-c3ccco3)[nH]n2)n1-c1ccccc1Cl	31.6µM*
O=C(NC1CCCCC1)N1CCCCCCC1	-21.6%
O=C(Nc1cccc(Br)c1)c1ccccc1-c1ccccc1	-13.1%
CC(C)(C)c1ccc(C(=O)CSc2n[nH]c(=O)[nH]c2=O)cc1	?
Cc1ccc(F)c(NC(=O)C2CCCCC2C(=O)O)c1 (configuration not stated)	-3.9%
CC(CN(C)C)NC(=O)c1ccc(Cc2nc3ccccc3[nH]2)cc1 (configuration not stated)	-1.1%
COc1ccc(C2C3=C(CC(C)(C)CC3=O)Oc3ncn(Cc4ccccc4)c(=N)c32)cc1 (configuration not stated)	1.9%
C/C(=N\N(C)C)C1=C(O)c2ccccc2C1=O	-17.4%
CC1(C)[C@@H]2CC[C@]1(CC(=O)O)[C@H](Cl)C2	-14.8%
CCOc1ccc(NC(=S)NC(=O)/C=C/c2ccc(C)cc2)c([N+](=O)[O-])c1	?
O=C(CCS(=O)(=O)c1ccccc1)Nc1nc2c(s1)COc1ccccc1-2	?
COc1ccc(C(=O)Nc2nnc(Cc3cccs3)s2)cc1OC	-3.4%
Cc1c(NC(=S)NC(=O)C(C)(C)C)cccc1[N+](=O)[O-]	-13.8%
CCOc1ccc2nc(NCCCNS(=O)(=O)c3ccccc3)c(C#N)cc2c1	?
Cc1cccc(-n2c(SCC(=O)Nc3cccc(S(=O)(=O)NC4=NCCCCC4)c3)nc3ccccc3c2=O)c1C	-15.5%
O=S(=O)(Cc1nc2ccccc2s1)c1ccccc1	-6.5%
Cc1cc(C(=O)CN2C(=O)NC3(CCCc4ccccc43)C2=O)c(C)n1Cc1cccs1 (configuration not stated)	-6.7%
O=C(Cc1ccc(Br)cc1)N1CCCCCC1	?
c1ccc(-c2nnc(CN3CCC4(CC3)OCCO4)o2)cc1	-7.2%
CCc1c(C)sc(NC(=O)CCc2ccc(OC)cc2)c1C(N)=O	-4.5%
Cc1cc(C)nc(N2CCC(C(=O)Nc3ccc4c(c3)OCO4)CC2)n1	-12.1%
CCC(=O)Nc1sc2c(c1C(=O)N(C)C)CCCCC2	2.5%
Additional results.
SMILES	HPGD block
O=C(NCCc1c[nH]c2ccccc12)Nc1ccccc1	-5.6%
O=c1[nH]nc(CSCc2ccccc2Cl)[nH]1	-4.4%
COc1ccccc1NC(=O)CSc1ccc2nnc(-c3cccnc3)n2n1	-11.4%
CCC(CC)C(=O)Nc1ccccc1NC(C)=O	-1.4%
O=c1cc(-c2ccccc2F)nc(-c2ccccc2F)o1	-11.2%
CCN(CC)S(=O)(=O)c1cccc2c(N(C)C)cccc12	-20.7%
Cc1cc(=S)cc(C)n1CCCO	-10.9%
CC(=O)[C@]1(O)CC[C@@H]2[C@H]3C[C@@H](C)C4=CC(=O)CC[C@@]4(C)C3[C@@H](O)C[C@]21C (some centres not stated)	-18.2%
COc1cccc(/C=N/NC(=O)c2c(-c3ccccc3)noc2C)c1	-4.6%
O=C(Nc1nccs1)c1csc2c1CCCC2	25.1µM*
CSC1=N/C(=C\c2ccc(C)o2)C(=O)S1	?
C=CCn1c(=N)n(CC(=O)c2ccc(Br)s2)c2ccccc21	-2.8%
Cc1cccc(-c2nc(CN3CCCC(C(=O)NC4CCCCC4)C3)c(C)o2)c1 (configuration not stated)	-26.6%
CN1CCN(C2=Nc3cc(Cl)ccc3Nc3ccccc32)CC1	-16.3%&-13.8%&-9.8%&-22.5%&-7.9%
Cc1ccc(N2CC(c3nc4ccccc4[nH]3)CC2=O)c(C)c1 (configuration not stated)	-14.8%
CCCNc1ccc(S(=O)(=O)N(C(C)C)C(C)C)cn1	-20.4%
O=C(Nc1nccs1)c1ccc(CSc2nnnn2-c2ccccc2)cc1	?
N=c1c(C(=O)NCc2ccc(F)cc2)cc2c(=O)n3ccccc3nc2n1CCCN1CCOCC1	?
CCCn1c(SCC#N)nc2c(c1=O)C1(CCCC1)Cc1ccccc1-2	-16.7%
O=C(N/N=C/c1ccco1)c1ccc(Br)o1	-8.5%
O=c1oc2ccccc2cc1NCc1ccccc1O	-23.9%
O=c1nc2n(c3ccccc13)Cc1ccccc1-2	?
CC(=O)OC1CCC2(C)C3CCC4(C)C(CC5CCCCC54C(C)=O)C3CC(=O)[C@@]2(O)C1 (some centres not stated)	-9.1%
O=C(N/N=C/c1cccnc1)c1ccc(NC(=O)C(c2ccccc2)c2ccccc2)cc1	-3.7%
Cc1cccc(Nc2nc(N)nc(CSc3nccn3C)n2)c1	4.2%
Oc1ccccc1-c1n[nH]c(=S)n1Cc1ccco1	-11.5%
COC(=O)CCC(=O)OC1(C)C(=O)C2=CN(C3CC3)C(c3ccc(OC)cc3)=CC2=C(Br)C1=O (configuration not stated)	-7.0%
COc1ccc(NC(=O)c2cnc(C)cn2)c2ncccc12	-10.0%
Cc1nn(C)cc1C(=O)Nc1ccccc1Br	0.2%
COc1ccc(CC(NC(C)=O)C(=O)NC2CCN(S(=O)(=O)c3cccc4ccccc34)CC2)cc1OC (configuration not stated)	-0.5%
CCOC(=O)c1cc(C(C)=O)c(=O)n(C)c1N	?
COC(=O)Cc1ccc(NC(=O)c2cccs2)cc1	-6.4%
COC(=O)c1ccc(COC(=O)c2c(C)nn(Cc3ccccc3Cl)c2Cl)o1	-23.0%
CCCCCCC(=O)Nc1cc2c(C)cc(=O)oc2cc1C	-17.2%
COCCN(C(=S)Nc1ccccc1C)C(C)c1cccnc1 (configuration not stated)	-10.1%
Cc1ccc(CNC(=O)C2CCCN(S(=O)(=O)c3cnc[nH]3)C2)cc1 (configuration not stated)	-7.7%
Cc1ccc(-c2sc(C)nc2CC(=O)O)cc1	-13.4%
CSC(=CC(=O)c1ccccc1)SC	-17.1%
c1ccc(SCc2nc(-c3ccccn3)no2)cc1	-8.4%
COc1ccc(C(=O)C(CN2CCOCC2)c2ccccc2)cc1 (configuration not stated)	0.5%
NS(=O)(=O)c1ccc(S(=O)(=O)N2CCCC2)cc1	-11.2%
CC1=C(C(=O)OC(C)(C)C)C(c2ccco2)C(C#N)=C(N)O1 (configuration not stated)	-6.6%
COc1ccc(NC(=S)N2CCCC2)cc1	1.2%
O=C(NCC1CCCO1)c1c(O)c2cccc3c2n(c1=O)CCC3 (configuration not stated)	-18.4%
CC(=O)N1CCC(C(=O)c2ccc(Cl)cc2)CC1	-9.8%
CC1=NC(C(F)(F)F)(C(F)(F)F)C(C#N)=C(C)N1	4.5%
Cc1ccc(-c2cn3c(=O)cc(C)[nH]c3n2)cc1	?
COc1ccc(OC)c(-n2c(CNC3CCN(Cc4ccccc4)CC3)nc3ccccc3c2=O)c1	-0.3%
CC1=CC2=NC(=O)/C(=C\c3cc(C)n(-c4ccccc4F)c3C)C(=N)N2O1	?
COc1nnc(-c2ccc(N3CCCCC3)c(NC(=O)C3CCCCC3)c2)c2ccccc12	-5.0%

Arranged by the number under HPGD block (low to high): 5 of the compounds above
SMILES	HPGD block
O=C(NCC1CCCO1)c1c(O)c2cccc3c2n(c1=O)CCC3 (configuration not stated)	-18.4%
CC(=O)N1CCC(C(=O)c2ccc(Cl)cc2)CC1	-9.8%
CC1=C(C(=O)OC(C)(C)C)C(c2ccco2)C(C#N)=C(N)O1 (configuration not stated)	-6.6%
COc1nnc(-c2ccc(N3CCCCC3)c(NC(=O)C3CCCCC3)c2)c2ccccc12	-5.0%
COc1ccc(NC(=S)N2CCCC2)cc1	1.2%

Additional structures
SMILES	HPGD block
COCC1=C2c3ccccc3[C@H](C[N+](=O)[O-])C(C(=O)OC)(C(=O)OC)C[C@@H]2n2c(=O)n(-c3ccccc3)c(=O)n2C1	-8.6%&-9.3%&-5.4%
CC12CCC(C/C1=N\N=C1\NC(=O)/C(=C\c3ccc(Cl)cc3)S1)C2(C)C (configuration not stated)	-15.8%
O=C(NCc1ccccn1)C1CCCN(S(=O)(=O)c2cccc3nsnc23)C1 (configuration not stated)	-10.2%
CCOc1ccccc1Nc1ncnc2c1cnn2-c1ccccc1	-5.4%
C/C(Cn1nc([N+](=O)[O-])cc1C)=N\NC(=O)COc1ccccc1[N+](=O)[O-]	-7.7%
O=C(Nc1nncs1)C(Sc1ccccc1)c1ccccc1 (configuration not stated)	-12.9%
CCOC(=O)C(C)Oc1ccc(=O)n(-c2ccccc2)n1 (configuration not stated)	3.0%
COC(=O)c1nn(-c2ccc(OC)cc2)c(=O)cc1Oc1ccccc1	-11.6%
O=C(Nc1cccc(NS(=O)(=O)c2ccc(S(=O)(=O)NC3CC3)cc2)c1)c1ccccn1	-9.2%
O=C(Nc1nnc(-c2ccccc2)s1)c1cc(S(=O)(=O)N2CCOCC2)c(Cl)cc1Cl	-16.7%
Cc1cc(NC(=O)CSc2ccc3nnc(-c4cccc(F)c4)n3n2)no1	?
Cc1c(NC(=S)NC(=O)C(c2ccccc2)c2ccccc2)cccc1C(=O)O	-9.7%
CCn1nnnc1SCC(=O)c1ccc(NC(C)=O)cc1	-11.3%
Cc1ccc2c(c1)-c1nc3ccccc3cc1C2=NC1CCCCC1	-12.4%
COc1ccc(CCNC(=O)CCn2cccc2)cc1OC	-1.7%
CC(=O)[C@]1(O)CCC2C3CCC4=CC(=O)CC[C@@]4(C)C3CC[C@]21C (some centres not stated)	-0.4%
Cc1ccc(OC[C@H](O)[C@H](C)NC(C)C)c2c1CCC2	-8.0%
CCc1nnc(SCc2ccc(OC(C)C)cc2)n1N	-9.0%
COc1ccc(OC)c(NC(=O)COC(=O)CNC(=O)c2ccc(OC)c(OC)c2)c1	-3.7%
COc1cccc(CSc2nc3cc4c(cc3cc2C)OCCO4)c1	-17.9%
Cc1cccc(C(=O)NC(=S)Nc2ccc(S(=O)(=O)N(C)c3ccccc3)cc2)c1	-13.9%
COc1ccc(CN(CCC(c2ccccc2)c2ccco2)C(=O)c2ccco2)cc1 (configuration not stated)	28.2µM*
Cc1cc(C(=O)Nc2nnc(C3CCCCC3)s2)no1	-9.9%
Cc1ccc(C)c(OCc2ccc(C(=O)N3N=C(C(F)F)CC3(O)C(F)F)o2)c1 (configuration not stated)	-13.5%
COCCNC(=O)[C@H](C)/C=C(\c1cccnc1)C(NC(=O)OCc1ccccc1)c1ccc(C(=O)OC)cc1 (some centres not stated)	-7.3%
Cc1cccc(-c2ccc(-c3cc(=O)oc4cc(C)cc(C)c34)cc2)c1	-3.5%
CCc1nc(SCC(=O)N2CCN(C(=O)c3ccco3)CC2)c2c3c(sc2n1)CCCC3	-26.6%
